Screening data as filed in PubChem BioAssay.
2A firefly: Primary qHTS Assay for Foot and Mouth Disease Virus Antivirals against NCGC Sytravon and CBC Compound Libraries: Firefly Luciferase Signal; AID 1745856, 2022; Potency, µM (titrated, usually from 57.5 µM), for the others: top-dose signal change, negative = less light; actives 0.23% (n = 120,000); HEK cells with a luciferase reporter of 2A StopGo recoding; active = well fitted falling curve with a large enough effect; inconclusive = small, poorly fitted or top-dose-only effect; inactive = no such curve, though single readings can be large or run the other way; further: nearly all actives have a fitted effect of over 60% in size; overnight with compound
StopGo RLuc: Primary qHTS Assay for Foot and Mouth Disease Virus Antivirals against NCGC Sytravon and CBC Compound Libraries: Renilla Luciferase Signal; AID 1745857, 2022; Potency, µM (titrated, usually from 57.5 µM), inactives show top-dose signal change, negative = less light; actives 0.32% (n = 120,000); HEK cells with a luciferase reporter of 2A StopGo recoding; active means well fitted falling curve with a large enough effect; inconclusive means small, poorly fitted or top-dose-only effect; inactive means no such curve, though single readings can be large or run the other way; further: nearly all actives have a fitted effect of over 55% in size; overnight with compound
The depositor's hits bear a star; ? = inconclusive; & = joins results of further samples; [ ] = another dose, or the depositor's remark. On the % scale 0 is the no-effect control and ±100 the full control effect; potency means the concentration at half of the fitted maximal effect. The list is partial; the hit share may differ from the screen's.

Values run as follows: 2A firefly	StopGo RLuc
- CN(C(=O)CN(CCO)CC(=O)N(C)C(C)(C)Cc1ccccc1)C(C)(C)Cc1ccccc1
 : -24%	-2%
- CCC(CC)C(=O)N1CCc2cc(OC)c(OC)cc2C1COc1ccc2c(C)cc(=O)oc2c1 (configuration not stated)
 : -16%	5%
- CC1CCN(c2nc3c(c(=O)n(C)c(=O)n3C)n2Cc2cccc(C(F)(F)F)c2)CC1
 : -6%	-12%
- N#CC1(NC(=O)COc2cccc(C(F)(F)F)c2)CCCC1
 : 7%	-5%
- CCN(CC)C(C)C(=O)c1ccccc1 (configuration not stated)
 : -21%	-11%
- O=c1c2c(-c3cccs3)csc2nc(CN2CCOCC2)n1CCOc1ccccc1Cl
 : -5%	-4%
- Cc1cccn2c(=O)cc(COc3cccc(NC(=O)c4cccc(Cl)c4)c3)nc12
 : -25%	-15%
- NC(=O)c1ccc(COC(=O)c2ccccc2-c2ccccc2)cc1
 : -2%	42%[activator]
- CC(C)[C@@H](CO)N1Cc2nnn(Cc3ccccc3)c2-c2ccccc2S1(=O)=O
 : -4%	33%[activator]
- CC(C)(C)N1Cc2nnn(CC3CCCCC3)c2-c2cc(F)ccc2S1(=O)=O
 : 5%	69%[activator]
- Cc1ccc(C)c(Cn2c(=O)n(CCc3ccccc3)c(=O)c3c(C)c(C)sc32)c1
 : -6%	-11%
- Cc1ccccc1Nc1nn2c(=O)c3ccc(C(=O)NCCc4ccc(Cl)cc4)cc3nc2s1
 : 30%	-7%
- CCc1ccc(-c2cc3c(N4CCN(c5ccccc5)CC4)nccn3n2)cc1
 : 269%[activator]	-10%
- Oc1ccccc1C=Nc1ccc(C23CC4CC(CC(c5ccccc5)(C4)C2)C3)cc1
 : -2%	-3%
- CCOc1ccc(C2C(C(=O)Nc3ccccc3)=C(C)Nc3nc(SCc4cccc(OC)c4)nn32)cc1 (configuration not stated)
 : -14%	-5%
- COc1ccc(-c2nc(CSc3nnc(C)n4c3cc3sccc34)c(C)o2)cc1
 : -1%	-11%
- COCCn1c(C)cc(C(=O)CSc2nc3nc(C)cc(C)n3n2)c1C
 : 21%	-8%
- COc1ccc(-c2cnc(C)o2)cc1S(=O)(=O)Nc1cccc(C(F)(F)F)c1
 : 5%&-18%	112%[activator]
- CC(NC(=O)c1ccc(-c2ccc(F)cc2)o1)C12CC3CC(CC(C3)C1)C2 (configuration not stated)
 : 17%	0%
- CCOc1ccc(S(=O)(=O)Nc2nc3ccccc3nc2NC2CCCCC2)cc1
 : 56%[activator]	24%
- COc1ccc(CNC(=O)Cc2c(C)c3ccc(O)cc3oc2=O)cc1
 : 28%&18%	6%&-5%
- Cc1cc(C)cc(Nc2nc3ccccc3nc2-n2nc(C)cc2C)c1
 : -1%&28%	-7%&-6%
- CSc1ccc(Cl)c(C(=O)Nc2cc(C)cc(C)c2)c1
 : 7%	-10%[1.06 µM]
- CCc1cnc2c(c1SCC(=O)Nc1cc(Cl)ccc1OC)c(=O)n(C)c(=O)n2C
 : -5%	-5%
- Cc1ccc(CCNC(=O)c2cc(C)nc3c(C)cc(C)cc23)cc1
 : 47%[activator]	38%[activator]
- COc1cccc(N2CCN(C(=O)c3ccc(Cn4c(=O)[nH]c5cc(OC)c(OC)cc5c4=O)cc3)CC2)c1
 : -8%	-6%
- O=C(CSc1nccn1-c1ccccc1)Nc1ccc2c(c1)OCO2
 : 0%	34%
- CCOc1ccc2oc(=O)cc(-c3cc4ccccc4o3)c2c1
 : 1%	11%
- COc1ccc(OC)c(NC(=O)Cn2cc(C(=O)c3ccc(Cl)cc3)c(=O)c3cc(OC)ccc32)c1
 : -10%	-13%
- Cc1onc(-c2ccccc2Cl)c1C(=O)Oc1ccccc1F
 : -19%	37%[activator]

Exported tab-delimited: two of the compounds above.
Molecule	2A firefly	StopGo RLuc
CCOc1ccc2oc(=O)cc(-c3cc4ccccc4o3)c2c1	1%	11%
COc1ccc(OC)c(NC(=O)Cn2cc(C(=O)c3ccc(Cl)cc3)c(=O)c3cc(OC)ccc32)c1	-10%	-13%

Further results follow.
Values run as follows: 2A firefly	StopGo RLuc
- Cc1ccc2c(CSc3nnnn3-c3ccccc3)cc(=O)oc2c1C
 : -2%	0%
- O=C(Cn1ccn2nc(-c3ccc4c(c3)OCO4)cc2c1=O)NCc1ccc(Cl)cc1
 : 19%	0%
- CCc1ccc(NC(=O)NCc2nc(-c3ccccc3)oc2C)cc1
 : 0%	9%
- O=C(Nc1ccc(O)c(-c2nc3ccccc3o2)c1)c1cccs1
 : -9%	-7%
- O=C(c1ccccc1COc1ccccc1)N1CCN(C2CCS(=O)(=O)C2)CC1 (configuration not stated)
 : 2%	-2%
- CCN(Cc1cc(=O)[nH]c2c(C)cc(C)cc12)C(=O)Nc1cc(C)ccc1OC
 : 0%	28%
- Cc1ccc(Oc2ccc(NC(=O)c3n[nH]c(=O)c4ccccc34)cc2)cc1
 : 2%	-10%
- CCc1ccc(NC(=O)Cn2ncn3c(cc4ccccc43)c2=O)cc1
 : -3%	-9%
- COc1ccc(NC(=O)CC2Nc3cccc4cccc(c34)NC2=O)cc1 (configuration not stated)
 : 0%	-4%
- COc1ccc(Cl)cc1NC(=O)Cn1nnc(C(=O)NCc2ccc3c(c2)OCO3)c1N
 : 43%[activator]	25%
- Cc1cccc(N2CCN(C(=O)Cn3nc(C)c4sc5ccccc5c4c3=O)CC2C)c1 (configuration not stated)
 : -12%	-13%
- CC(C)c1ccc(NC(=O)CSc2nc3c(=O)[nH]cnc3n2CC2CCCO2)cc1 (configuration not stated)
 : 16%	4%
- CCc1ccc(NC(=O)CSC2=Nc3ccccc3C3=NC(CCC(=O)NCCc4ccccc4)C(=O)N23)cc1 (configuration not stated)
 : -28%	36%[activator]
- Cc1cc(=O)c2ccccc2[se]1
 : 0%	6%
- CCc1cccc(C)c1NC(=O)C(CC)n1ncn2c(cc3cc(C)ccc32)c1=O (configuration not stated)
 : -9%	-5%
- CCc1ccc(S(=O)(=O)Nc2cc3c(cc2C)n(C)c(=O)c(=O)n3C)cc1
 : -6%	48%[activator]
- O=C(NC1CCCC(C(F)(F)F)C1)c1ccc(CN2CCCCC2)cc1 (configuration not stated)
 : 3%	6%[1.06 µM]
- COc1cccc(N2CCN(S(=O)(=O)c3ccc4c(c3)CCCN4C(C)=O)CC2)c1
 : -19%	-12%
- CC(=O)NC1=NN(C(C)=O)C2(S1)C(=O)N(CCC(C)C)c1c(C)cc(C)cc12 (configuration not stated)
 : -1%	175%[activator]
- COCCn1c(N2CCCC(C)C2)nc2c1c(=O)[nH]c(=O)n2C (configuration not stated)
 : 10%	0%
- O=C(c1csc(-c2ccsc2)n1)N1CCCC1c1ccccc1 (configuration not stated)
 : 17%	3%
- Cc1nc(C(C)(C)C)nc2sc(C(=O)N(C)C)c(C)c12
 : 15%	4%
- COc1cccc(CNC(=O)C2CCN(c3nc4ccc(Cl)cc4[nH]3)CC2)c1
 : -11%	-11%
- Cc1c(-c2nc(-c3ccccc3)no2)nnn1-c1ccc(F)c(Cl)c1
 : 65%[activator]	-3%
- CN(Cc1ccc2c(c1)OCO2)C(=O)c1nn(-c2ccccc2)c(=O)c2ccccc12
 : 20%	40%[activator]
- Cn1c(-n2cccc2)c(-c2c(-c3ccccc3)[nH]c3c2c(=O)n(C)c(=O)n3C)c(=O)n(C)c1=O
 : -15%	-6%
- CN(C)CCn1c2c(c(SCC(=O)Nc3ccc(F)cc3F)nc1=O)CCC2
 : -12%	-3%
- Cc1ccc(NC(=O)c2ncoc2-c2cccc(Cl)c2)cc1F
 : -10%	-2%
- CCCC(=O)N(c1ccc2oc3c(c2c1)CCCC3)S(=O)(=O)c1cc(C)ccc1C
 : 22%	85%[activator]
- CCc1ccccc1NC(=O)Cn1ncc2c(C)n(Cc3ccccc3F)c(C)c2c1=O
 : -15%	-12%
- Cc1cccc(NC(=O)Cn2c(=O)n(Cc3ccccc3)c(=O)c3oc4ccccc4c32)c1C
 : -8%	6%
- CCOC(=O)c1cc(-c2ccccc2)nn1Cc1ccccc1
 : 216%[activator]	5%
- CC(NS(=O)(=O)c1cc(F)cc(F)c1)C(=O)N1CCCC1 (configuration not stated)
 : 1%	-3%
- Cc1ccc2oc(-c3ccc(NC(=O)CCC(=O)O)cc3)nc2c1
 : 0%	6%
- CC1Cc2cc(S(=O)(=O)CCC(=O)NCc3ccccc3Cl)ccc2N1C(=O)C1CC1 (configuration not stated)
 : 3%	38%[activator]
- CC1CCCCC12CCc1cc3c4c(c(=O)oc3cc1O2)CCCC4 (configuration not stated)
 : 1%	2%
- CN(C)S(=O)(=O)N(CC(=O)NC1CC1)c1ccccc1
 : -10%	-8%
- Cn1c(=O)[nH]c(=O)c2c1nc(N1CCOCC1)n2CC(O)COc1ccc(Cl)cc1 (configuration not stated)
 : 16%	9%
- CC1=C(c2ccc(C(C)C)cc2)S(=O)(=O)NC1=NCc1ccccc1C
 : -17%	57%[activator]
- O=C(COc1cccc(F)c1)Nc1cccc2cccnc12
 : 27%	-7%
- CC1(C)CC(NC(=O)CCNC(=O)N2CCN(C(=O)c3cc4ccccc4[nH]3)CC2)CC(C)(C)N1
 : 5%	-4%
- O=C(O)c1nnn(-c2ccccc2)c1C(F)(F)F
 : 5%	6%
- Cc1ccc2c(c1)c(=O)c1ccccc1n2CCCC(=O)Nc1c(F)cccc1F
 : -10%	-15%
- C/C=C(\C)C(=O)O[C@@H]1Cc2c(ccc3ccc(=O)oc23)OC1(C)C
 : 13%	-1%
- CCc1ccccc1N(C)C(=O)c1ccc2c(=O)n3c(nc2c1)CCCCC3
 : 42%[activator]	18%
- O=C(COC(=O)C1CC(=O)N(c2nc(-c3ccccc3)cs2)C1)c1ccccc1 (configuration not stated)
 : -8%	-9%
- COc1ccc(-n2c(=O)c3c4c(sc3n(Cc3ccccc3Cl)c2=O)CCC4)c(OC)c1
 : -15%	-7%
- CN(C)Cc1nc(SCC(=O)Nc2ccccc2)c2ccccc2n1
 : 7%	2%
- CCN1CCN(c2ncnc3c2cnn3-c2ccc(C)c(Cl)c2)CC1
 : 5%	-13%
- CC(C)(C)c1ccc(C(=O)NC(=O)COC(=O)c2ccccc2)cc1
 : 0%	11%
- O=C(Nc1ccc(F)cc1F)C12CC3CC(CC(C3)C1)C2
 : 0%	24%
- CCS(=O)(=O)NCCc1sc2nc(-c3ccc(OC)cc3)nn2c1C
 : -27%	?
- O=C(NCc1ccccc1F)c1ccc(CSc2nc3cccnc3n2Cc2ccccc2)cc1
 : -20%	6%
- COc1ccc(-n2c(SCC(=O)NCc3ccccc3)nc3ccsc3c2=O)cc1
 : -26%	-17%
- CCCCOCCCNC(=O)CCC(=O)NCC(CC)CCCC (configuration not stated)
 : -11%	-11%
- CC(C)OCCCNC(=O)c1cc(Nc2ccccc2)nc2ccccc12
 : 4%	4%
- O=C(Cn1nc(-c2ccccc2)c2ccccc2c1=O)Nc1cccc(O)c1
 : -10%	-8%
- O=C(OCc1ccc(F)cc1Br)c1ccc(CN2CCCC2=O)cc1
 : -5%	-19%
- CCn1c(CN(c2ccc(C)cc2)S(C)(=O)=O)nnc1SCC(=O)c1cc(C)n(C)c1C
 : -3%	-7%
- Cc1cc(C)cc(-c2nnc(SCc3ncc(-c4ccccc4)o3)o2)c1
 : 105%[activator]	13%

(more compounds)
Values run as follows: 2A firefly	StopGo RLuc
- Cc1cccc(NC(=O)COC(=O)Cn2cnc3c2c(=O)n(C)c(=O)n3C)c1
 : 13%	-6%
- CCOC(=O)CSc1ncn(-c2nc(NC3CC3)nc(N(C)C)n2)n1
 : 2%	-3%
- CC1CCN(C(=O)CCS(=O)(=O)c2cc3c(cc2Cl)NC(=O)CO3)CC1
 : -17%	2%
- COc1cccc(OC)c1C(=O)Oc1ccc2c(c1)O/C(=C\c1ccc(C(C)(C)C)cc1)C2=O
 : 4%	-2%
- O=C(NCCc1ccccc1)c1ccc2c(c1)nc1n2CCOC1
 : -66%	-7%
- COc1cccc2cc(C(=O)N3CCN(c4ccc(C)cc4C)CC3)c(=O)oc12
 : -9%	5%
- COc1cccc(CCNC(=O)c2cnc3sc(N4CCOCC4)nn3c2=O)c1
 : -13%	-10%
- Cc1cccc(C)c1OCCC(=O)NC(C)c1cccs1 (configuration not stated)
 : 2%	0%
- CCOC(=O)c1cc(-c2ccccc2)n(-c2cccc(C(=O)Nc3cccc(SC)c3)c2)c1C
 : -12%	-12%
- COc1ccc(-c2cc(C(F)(F)F)c(C#N)c(SCC(=O)Nc3ccccc3F)n2)cc1
 : -20%	4%
- Cn1nc(CC(=O)Nc2ccccc2)c2ccccc2c1=O
 : ?	?
- Cc1ccc(-c2ccc(CCC(=O)O)n2-c2ccc(C(C)C)cc2)cc1
 : 25%	-16%
- Cc1cccc(NC(=O)C(=O)NCC(c2cccnc2)N2CCc3ccccc32)c1C (configuration not stated)
 : -42%	?
- Cn1c(=NC(=O)c2ccc(S(=O)(=O)N3CCCc4ccccc43)cc2)sc2cc(F)ccc21
 : 13%	-9%
- CCn1c(CN2CCOCC2)nc2cc(NC(=O)c3cc(OC)c(OC)c(OC)c3)ccc21
 : 35%[activator]	7%
- COc1ccc(C(=O)OCCN(C)C(C)(C)C)cc1OC
 : 29%	13%
- O=C(Nc1oc2ccc(Cl)cc2c(=O)c1-c1ccc2c(c1)OCO2)c1ccccc1
 : 2%	5%
- CCCN1C(=O)C(O)(CC(=O)c2ccc(CC)cc2)c2ccccc21 (configuration not stated)
 : -10%	-1%
- COC(=O)C(CC(CC(C(=O)OC)C(=O)OC)(C(=O)OC)C(=O)OC)C(=O)OC
 : -2%	-2%
